# HNF4A DNA FP – change in binding of human HNF4A to DNA, primary screen, biochemical, fluorescence polarization, FITC-DNA; Hepatocyte nuclear factor 4-alpha (Homo sapiens), P41235; 1 h; activity change, % at 10 µM; hit rate 0.3% among 360,000; in the data active = activity change above about 30%, passing the limit was not always enough;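 also: controls were the assay level and a saturating level of protein; the project sought stronger binding though the title names inhibitors; some compounds called inactive have numbers as strong as hits; positive values seem to mean higher polarization but the record does not say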
# Target sequence (P41235 whole entry, looked up): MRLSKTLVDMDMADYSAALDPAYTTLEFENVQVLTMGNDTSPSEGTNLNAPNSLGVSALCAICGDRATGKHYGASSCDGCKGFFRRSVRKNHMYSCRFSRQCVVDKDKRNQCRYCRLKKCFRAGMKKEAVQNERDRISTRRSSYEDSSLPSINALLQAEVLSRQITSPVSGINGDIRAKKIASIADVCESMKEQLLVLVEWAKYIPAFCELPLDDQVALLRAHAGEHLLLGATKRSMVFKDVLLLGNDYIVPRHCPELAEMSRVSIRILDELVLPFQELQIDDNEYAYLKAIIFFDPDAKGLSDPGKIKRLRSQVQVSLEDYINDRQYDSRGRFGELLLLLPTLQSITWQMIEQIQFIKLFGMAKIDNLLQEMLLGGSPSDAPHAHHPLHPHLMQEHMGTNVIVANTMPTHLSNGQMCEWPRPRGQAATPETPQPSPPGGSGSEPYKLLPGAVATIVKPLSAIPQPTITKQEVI
# LANA-H2B inh – blockers of LANA interaction with H2A/H2B – biochemical, FP readout, HTS, primary screen. Protein LANA1 (Human herpesvirus 8 type P (isolate GK18)), Q9QR71. cell-free LANA-H2A/H2B peptide, fluorescence polarization. inhibition, % (concentration not given with the values). hit rate 0.6% among 320,000. AID 2629, 2010; in the data active = inhibition mostly above about 10%, no sharp cut-off; inactive = mostly below about 6.7%;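 also: stock transfer was 7.5 nL into about 10 µL; 0% = median of vehicle wells and 100% = median of positive control wells; one replicate is shown; the record names a cut of 25% in any replicate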
# Vif TR-FRET – inhibitors of Vif binding to APOBEC3G peptide, primary screen, biochemical, TR-FRET, GST-Vif 1-94, biotin-A3G peptide, dose response retest (AID 1117319); Virion infectivity factor (Human immunodeficiency virus type 1 group M subtype B (isolate …; TR-FRET GST-Vif / biotin-A3G peptide binding; higher % means a stronger effect; test concentration not given here; strong numbers were not always called active; inhibition, %; hits with a dose series show IC50 in µM; hit rate 0.57% among 260,000;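 active = above the screen mean plus three standard deviations and confirmed in dose response; inconclusive = results disagree or hit not tested in dose response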;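 also: Vif residues 1-94 fused to GST binding biotinylated APOBEC3G peptide 110-148; 0% = full assay without inhibitor and 100% = GST in place of GST-Vif; retest series ran down from 100 µM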
# ALR H2O2 inh – inhibitors of human ALR sulfhydryl oxidase, primary screen, biochemical, H2O2 detection, HRP-luminol luminescence, single point; FAD-linked sulfhydryl oxidase ALR (Homo sapiens), P55789; purified ALR, DTT oxidation; inhibition, % (concentration not given with the values); hit rate 3.8% among 290,000;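 active = mean and each replicate at 75% or more; inconclusive = only one of the two met; inactive = neither met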;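 also: stock transfer was 7.5 nL into about 7.5 µL; 0% = neutral wells and 100% = wells with inactivated enzyme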
# Calb FLC – C. albicans growth inhibition with fluconazole, primary screen, CaCi-2 strain, Alamar Blue fluorescence. C. albicans CaCi-2 (fluconazole-resistant clinical isolate) + fluconazole, 48 h. growth inhibition, % (no concentration beside the values). hit rate 0.57% among 300,000. AID 1979, 2009;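 active = most replicates above 75%; inconclusive = exactly half above 75%; inactive = most below 75%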;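 also: all wells also contain fluconazole at 8 µg/ml as a sub-toxic cotreatment; 0% = median of DMSO wells and 100% = median of geldanamycin control wells; wells of about 8 µL received 7.5 nL stock; the first replicate is given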
# RanGTP-Impb inh – inhibitors of RanGTP-importin-beta interaction, primary screen, biochemical, FRET, CFP-Ran, YFP-importin-beta, homogeneous; Ran GTPase (GTP-bound) - importin-beta complex; cell-free CFP-Ran/YFP-importin-beta FRET ratio; inhibition, % (concentration not given with the values); hit rate 1.1% among 300,000; AID 2216, 2009;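 active = most replicates above 15%; inconclusive = exactly half above 15%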;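 also: 0% = DMSO wells and 100% = Ran loaded with GDP instead of GTP; wells of about 40 µL received 100 nL stock; the first replicate is given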
# B2AR ag – beta2AR agonists driving receptor internalization, primary screen, cell-based, FAP fluorogen, flow cytometry; Beta-2 adrenergic receptor (Homo sapiens), P07550; Am2.2-beta2AR cells; reference of the scale not given here; response, % (test concentration not listed); hit rate 0.43% among 340,000; AID 504454, 2011;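 active = response above a set limit, near 3 SD of response in nonfluorescent compounds, cut at about 42% in these data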;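 also: stock transfer was 100 nL into about 11 µL; a reference agonist was the positive control; negative values mostly stem from fluorescent compounds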
# Target sequence (P07550 whole entry, looked up): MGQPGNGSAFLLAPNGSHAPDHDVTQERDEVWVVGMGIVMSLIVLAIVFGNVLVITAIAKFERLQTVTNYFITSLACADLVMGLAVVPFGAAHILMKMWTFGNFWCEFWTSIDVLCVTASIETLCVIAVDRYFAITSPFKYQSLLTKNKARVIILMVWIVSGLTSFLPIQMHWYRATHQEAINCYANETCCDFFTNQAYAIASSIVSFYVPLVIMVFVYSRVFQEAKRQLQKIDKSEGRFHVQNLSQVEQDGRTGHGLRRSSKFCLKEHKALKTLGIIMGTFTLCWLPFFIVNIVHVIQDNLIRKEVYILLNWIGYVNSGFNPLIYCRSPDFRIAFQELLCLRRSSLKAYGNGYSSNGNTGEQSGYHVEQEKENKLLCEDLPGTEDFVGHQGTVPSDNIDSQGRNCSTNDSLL
# Numbers without * were called inactive; ? = inconclusive; . = not tested or not shown.
SMILES,HNF4A DNA FP,LANA-H2B inh,Vif TR-FRET,ALR H2O2 inh,Calb FLC,RanGTP-Impb inh,B2AR ag
COC(=O)C(c1ccccc1)N(Cc1cccc(CN(C(C(=O)OC)c2ccccc2)S(C)(=O)=O)c1)S(C)(=O)=O (stereo not given),0.5,0.9,.,-19,-12,1.1,6
O=C(CNS(=O)(=O)c1c(F)cc(F)cc1Br)OCC(=O)N1CCCC1=O,-3.0,1.0,.,-12,-7,-0.5,2
O=C1N/C(=C\c2nc3ccccc3s2)c2ccccc21,.,1.8,.,-4,7,3.3,.
CCOC(=O)c1c(C)[nH]c(C(=O)CSc2ccccc2)c1C,-1.6,-3.4,1%,-4,-2,-4.5,-3
Cc1c(C(=O)NCCC2=CCCCC2)oc2ccc(S(=O)(=O)N3CCOCC3)cc12,0.3,3.1,6%,-32,.,.,18
O=C(c1cc2cc(Br)cc(Br)c2oc1=O)N1CCCC1,-1.3,1.2,1%,-3,3,4.9,-16
C/C(=N/NC(=O)c1ccc2c(c1)OCO2)c1ccc(NC(=O)c2ccc(F)cc2)cc1,-0.7,3.9,.,4,-18,.,-2
O=C(/C=C/c1c(Cl)nc2ccccn12)N1CCN(c2ccc(F)cc2)CC1,0.6,-2.9,-1%,35,15,?,-12
C=CCN(C(=O)c1csnn1)C(C(=O)NC(C)(C)C)c1ccncc1 (stereo not given),1.2,-2.2,8%,-1,17,7.1,-3
COc1cccc(/C=N/NC(=O)c2c(C)nc3ccc(Cl)cn23)c1OC,2.1,2.0,-6%,-4,-1,-1.9,-3
CCc1nn(CC(=O)NCCCN2CCN(C)CC2)c(=O)c2cc3occc3n12,2.4,4.3,-5%,-1,1,7.7,3
O=C(N/N=C/c1c[nH]c2ccccc12)c1ccncc1,-1.8,-0.4,14%,4,-6,-0.5,-2
CCC(C)(C)n1nnnc1C(c1ccc(C)cc1)N1CCSCC1 (stereo not given),-2.5,3.0,-5%,4,16,3.7,-2
CCCS(=O)(=O)c1cscc1NC(=O)c1c(-c2c(F)cccc2Cl)noc1C,-0.2,-0.5,-8%,-6,0,1.7,0
CN1CCN(C2=C(Cl)C(=O)c3ccccc3C2=O)CC1,-6.2,.,4.4µM*,.,.,.,28
C=CCN1C(=O)c2ccc(C(=O)OCC(=O)N(C)C3CCCCC3)cc2C1=O,4.5,-6.0,-8%,-12,-10,3.1,5
CC(=O)NC(Cc1cc(C)ccc1C)C(=O)N1CCN(C(=O)Nc2ccc(C(C)=O)cc2)CC1 (stereo not given),-1.1,0.7,-1%,.,19,-1.2,18
CCOC(=O)C1CCCN(S(=O)(=O)c2cc(Br)cc3c2N(C(C)=O)CC3)C1 (stereo not given),-0.6,-0.2,.,.,1,1.3,7
Clc1ccc(C2C3=C(Nc4ncnn42)c2ccccc2CC3)cc1 (stereo not given),.,-0.4,13%,-18,12,4.7,.
CC(=O)Nc1ccc(NC(=O)C2CCCN2/C=C/C(=O)C(F)(F)F)cc1 (stereo not given),-0.4,3.3,-8%,-5,-5,-1.9,-6
Cc1ccc(-n2c(O)c(/C=N/NC(=O)C3COc4ccccc4O3)c3ccccc3c2=O)cc1 (stereo not given),4.6,-4.9,5%,46,35,3.3,-6
CSc1nc(N)nc2c1ncn2C1OC(CO)C(O)C1O (stereo not given),2.1,.,-6%,.,.,.,-2
C=CCc1cc(Cl)ccc1OCCOCCN(C)C,-43,2.7,.,-6,-46,-2.1,1
COc1ccc(S(=O)(=O)NCc2cccnc2)cc1C(=O)Nc1ccccc1,-0.6,-2.1,-3%,4,-9,-1.4,-4
Brc1c(C[n+]2ccccc2)nc2ccccn12,-1.1,-2.6,16%,-5,-3,0.0,-3
CC(C)Cn1c(=O)c(CCC(=O)Nc2ccc(N3CCOCC3)cc2)nc2cc(Cl)ccc21,7.1,-4.1,.,-2,.,5.5,11
COc1cccc(N(CC(=O)Nc2cccc(C(C)=O)c2)S(C)(=O)=O)c1,-3.1,-6.1,-2%,-5,4,6.4,1
CCOC(=O)C1CCN(Cc2ccc(C(=O)OC)cc2)CC1,3.9,-3.2,4%,-10,0,-3.7,-1
CCOC(=O)c1ccc(NC(=O)c2ccc[n+]([O-])c2)cc1,0.5,4.3,.,.,-1,-2.3,2
O=C(c1ccco1)N1CCN(C(=O)c2cc3sccc3n2Cc2ccccc2)CC1,2.6,-2.9,-4%,-5,-30,2.7,-12
C#CCNc1ccc(C(=O)OCC)cc1,-3.9,-0.4,-4%,3,-15,-2.0,6
CCN(C(C)=O)c1nc(CSc2nnc(NC(C)C)s2)cs1,-1.4,-3.3,3%,-10,-5,-0.3,-4
CCOc1ccc(C(=O)N2CCN(c3ccccn3)CC2)cc1,-3.5,-2.1,-1%,-8,62,-0.2,0
Cc1ccc(C)c(N=Cc2cc3c(cc2[N+](=O)[O-])OCO3)c1,15,-1.0,13%,-11,3,2.9,9
CCOc1ccc(C(=O)OCC(=O)N2CCOCC2)cc1OCC,1.8,-0.6,.,-14,-6,-1.1,-4
CCOC(=O)Cn1nnnc1CN(Cc1cccs1)Cc1cc2cc(C)cc(C)c2[nH]c1=O,0.5,-1.1,-6%,-23,-1,-1.1,10
CC(C)(C)c1ccc(C(=O)N2CCC(C(=O)c3ccccc3)CC2)cc1,3.1,1.0,-6%,.,44,4.7,5
Cc1nc2ccccc2c(C)c1C(=O)c1ccccc1,0.7,-0.8,3%,-5,-36,1.8,-2
O=C(c1ccc(OC2CCN(Cc3ccc(F)cc3)CC2)cc1)N1CCCC1,-0.9,4.2,.,-7,0,0.5,43*
CCOc1ccccc1CN1CCN(Cc2nc3ccccc3s2)CC1CCO (stereo not given),0.5,-1.6,-4%,.,-9,?,-10
COC(=O)Cc1cc(=O)n2[nH]c(SC)nc2n1,-2.8,-0.1,0%,0,-2,?,-11
C=CCN1C=CC(=O)[C@@H](OC(=O)Nc2ccc(Br)cc2)[C@H]1c1ccccc1Br,2.8,.,7%,.,.,.,14
COc1ccc(-c2nnc(NC(=O)C3=COCCO3)o2)cc1,-3.5,-3.7,.,-2,8,2.6,3
Cc1cc(C)nc(NC(=S)NC(=O)c2ccccc2F)n1,3.5,0.4,.,-5,-9,-1.5,-8
O=C(NC1CCCC1)C(c1ccncc1)N(C(=O)c1csnn1)c1ccccc1F (stereo not given),1.4,-2.0,-1%,0,-2,0.7,-3
CC1CCCCC1NC(=O)C1CCC(CNS(=O)(=O)c2cccc3cccnc23)CC1 (stereo not given),-5.4,-6.5,.,-11,17,-11,4
COc1ccc(NC(=O)C(=O)NNC(=O)COc2ccc(OC)cc2)cc1,7.3,1.6,.,.,36,1.1,2
O=C(Cn1cccc1C(=O)c1ccccc1)NCc1ccc(Cl)cc1,0.5,-1.0,-4%,97*,-5,6.7,-1
COc1ccc(NC(=O)C(CC(C)C)NS(=O)(=O)c2ccc3c(c2)CCN3C(C)=O)cc1OC (stereo not given),-1.8,-0.4,2%,-96,2,1.0,-6
CCN1C(=O)c2cccc3c(S(=O)(=O)NCc4ccccn4)ccc1c23,-1.8,0.6,0%,-17,-3,23*,-11
CNc1ccc(Br)cc(C(=O)/C=C/c2ccc(Cl)cc2Cl)c1=O,9.3,2.2,9.2µM*,-8,22,-13,-60
CCN(c1ccccc1)S(=O)(=O)c1ccc(C(=O)NCC2(N(C)C)CCCCC2)cc1,3.9,0.2,7%,-4,.,.,8
COc1ccc(-c2cnc(SCC(=O)Nc3ccc4c(c3)OCO4)n2Cc2ccco2)cc1,2.2,.,4%,.,-16,7.8,0
Cc1cc(NC(=O)COC(=O)/C=C/c2ccc(C)o2)no1,-0.8,-2.2,.,-2,.,.,4
CC1=NN(C(N)=S)C(=O)C1N=Nc1ccc(F)cc1 (stereo not given),3.5,.,-7%,.,-2,2.5,-2
OCCNCc1cccc(OCc2ccccc2Cl)c1,3.6,-2.5,13%,-5,-6,18*,-1
COC(=O)c1cc2ccsc2n1CC(=O)N(C)c1ccccc1,1.1,0.5,-1%,1,9,-0.9,-1
C(=N\n1cnnc1)/c1cccc(OCCOc2ccccc2)c1,-3.3,-4.0,17%,-9,13,-0.2,0
Cc1cc(C)cc(OCc2nnc(SCC(=O)N3CCCCC3)o2)c1,-0.8,-7.8,-2%,-11,-13,-4.8,-2
CN(C1=NS(=O)(=O)c2ccccc21)c1ccc(OC(=O)c2ccccc2)cc1,-0.9,8.3,.,-5,-12,-1.5,16

# Additional results:
SMILES,HNF4A DNA FP,LANA-H2B inh,Vif TR-FRET,ALR H2O2 inh,Calb FLC,RanGTP-Impb inh,B2AR ag
CCCCCOc1ccc(/C=N/NC(=O)c2nnn(-c3nonc3N)c2CN2CCCCCC2)cc1,-6.6,2.5,10%,0,1,-1.3,-9
COc1ccc(OC)c2sc(N3CCN(C(=O)c4ccc5ncsc5c4)CC3)nc12,2.6,-6.6,1%,-22,7,-4.9,9
COCCn1c(N)c(Sc2ccc(C)cc2)c(=O)[nH]c1=O,5.0,5.0,-3%,-2,-7,-1.2,-3
COc1ccc(C(OC(=O)c2ccco2)C(=O)NC(C)(C)C)cc1 (stereo not given),0.8,-2.7,-10%,.,-23,-2.3,3
CCC(C)NS(=O)(=O)c1ccc(OCC(=O)NCc2ccco2)cc1 (stereo not given),-1.6,3.2,?,-4,16,-4.1,8
CCOC(=O)Cc1nnc(NC(=O)CCc2ccccc2)s1,-2.7,-0.7,0%,-7,-4,7.3,5
Cc1cccc(NC(=O)CSc2ccc(-c3ccc4c(c3)OCO4)nn2)c1C,-3.5,-5.1,.,-1,31,?,2
Cc1nn(CC(=O)Nc2cc(S(=O)(=O)N3CCOCC3)ccc2Cl)c(C)c1[N+](=O)[O-],1.0,.,2%,2,.,.,-6
CCCCNC(=O)C(=O)N/N=C/c1ccc(OCC(=O)Nc2cccc(OC)c2)c(OC)c1,-0.5,4.7,1%,-2,6,-1.8,3
Clc1ccccc1OCCCCn1ccnc1,1.3,3.1,2%,-7,7,2.5,-6
COc1ccc(Cn2c(=N)c(C(=O)NC3CCCCC3)cc3c(=O)n4ccccc4nc32)cc1,0.8,-2.4,.,1,55,28*,-3
O=C(N/N=C/c1ccc(F)cc1)c1ccc(Br)cc1,-0.2,1.9,>50µM*,.,?,-1.2,-6
O=C(Nc1ccc(N2CCCCC2)c(Cl)c1)c1ncn[nH]1,4.8,0.9,5%,-2,-7,1.2,4
Cc1cccc(NC(=S)NNC(=O)c2ccc3c(c2)OCO3)c1,1.6,-1.1,.,67,7,0.6,11
O=C(Nc1cc2c(cc1Br)OCCO2)c1ccco1,-2.3,-6.9,-9%,12,27,2.8,0
COc1ccc(C(=O)OCC(=O)N2C(C)CCCC2C)cc1[N+](=O)[O-] (stereo not given),3.0,-1.3,-2%,4,-2,-0.6,0

# High-throughput results deposited in PubChem BioAssay by several laboratories.
